Screening results as filed in PubChem.
N370S GC = qHTS Assay for Inhibitors and Activators of N370S glucocerebrosidase as a Potential Chaperone Treatment of Gaucher Disease. Lysosomal acid glucosylceramidase (Homo sapiens), P04062. Potency, µM (doses to about 59.4 µM), without a hit: at the top dose activity change, negative = inhibition, usual class: inhibitors. N370S GC spleen homogenate, 4MU-glucoside fluorescence. 330,000 compounds, 0.092% hits. AID 2101, 2009;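 note: 0% = full enzyme activity and -100% = no enzyme basal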
TDP1 inh = qHTS Assay for Inhibitors of Tyrosyl-DNA Phosphodiesterase (TDP1) | Potency, µM (highest dose often 130 µM), inactives show at the highest dose activity change, negative = inhibition, actives largely listed as inhibitors | 350,000 compounds, 0.28% hits | recombinant TDP1, AlphaScreen DNA substrate cleavage; note: nearly all actives have a fitted effect of over 40% in size
Target sequence (Q9NUW8 whole entry, looked up): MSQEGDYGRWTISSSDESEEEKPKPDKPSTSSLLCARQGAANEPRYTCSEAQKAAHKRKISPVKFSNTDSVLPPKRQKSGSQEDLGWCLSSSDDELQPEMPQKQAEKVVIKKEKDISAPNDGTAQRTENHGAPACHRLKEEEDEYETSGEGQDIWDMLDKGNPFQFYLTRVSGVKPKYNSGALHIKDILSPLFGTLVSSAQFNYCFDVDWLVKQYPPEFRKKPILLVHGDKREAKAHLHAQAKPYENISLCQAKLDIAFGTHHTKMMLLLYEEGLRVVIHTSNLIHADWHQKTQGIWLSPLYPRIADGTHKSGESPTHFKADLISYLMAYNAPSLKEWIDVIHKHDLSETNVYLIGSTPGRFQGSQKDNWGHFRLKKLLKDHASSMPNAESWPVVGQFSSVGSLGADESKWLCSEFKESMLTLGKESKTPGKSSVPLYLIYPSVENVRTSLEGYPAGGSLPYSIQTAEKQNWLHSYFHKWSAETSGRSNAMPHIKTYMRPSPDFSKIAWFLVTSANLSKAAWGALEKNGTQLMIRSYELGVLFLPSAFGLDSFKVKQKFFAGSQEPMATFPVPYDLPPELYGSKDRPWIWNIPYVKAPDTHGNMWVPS
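Recombinant human Tdp1 (E. coli-expressed, 1 nM final) preincubated with compounds 15 min at room temperature, then 5'-biotin/3'-phosphotyrosine-FITC DNA substrate (15 nM final) added for 5 min. AlphaScreen beads (10 ug/ml final) added 10 min; cleavage lowers signal.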
An asterisk follows results filed as active; ? = inconclusive; · = not tested or not shown; & = joins results of further samples; [ ] = dose if it differs, or a comment. Calls come from the whole dose curve; as a rule, active = well fitted curve in the direction sought with a large enough effect; inconclusive = small, poorly fitted or top-dose-only effect, or another doubt; inactive = no such curve, though single readings can be large; an effect the other way counts as inactive or inconclusive. Unless noted, % is set by controls: 0 for no effect and ±100 for the full control effect; potency is the fitted concentration of half-maximal effect. Not all compounds are listed, and most or all hits are left out here.

N370S GC | TDP1 inh | mol
-3.6% | 5.9% | CCn1c(CC(=O)Nc2ccccc2)nnc1SCC(=O)Nc1nncs1
-2.6% | 0.8%&5.0% | CC(CNS(=O)(=O)c1ccc2c(c1)CC(=O)N2C)c1ccccc1 (centres undefined)
20.2% | 0.0% | COc1ccc(-c2c(C#N)c(N)nc3sc(C(=O)c4ccc(C)cc4)c(N)c23)cc1
-3.8% | 4.6%&7.0% | COc1ccccc1N1CCN(C(=O)c2ccc3c(c2)CCN3S(=O)(=O)c2ccccc2)CC1
-0.4% | 0.0% | O=C(Cn1cnc2ccccc2c1=O)N1CCN(c2ccccc2)CC1
-2.6% | 0.0% | Cc1ccc(C)c(CSc2nc3[nH]ncc3c(=O)[nH]2)c1
-20.7% | 5.8% | Cc1occc1-c1nnc(SCC(=O)N2c3ccccc3CCc3ccccc32)n1C
3.9% | -0.2% | CCOC(=O)N1CCN(C(=O)CC(C)S(=O)(=O)c2cc3c(cc2C)NC(=O)CO3)CC1 (centres undefined)
-6.1% | 7.2% | CCOc1cc(N2CCOCC2)c(OCC)cc1NC(=O)Cc1ccccc1OC
-1.6% | · | Cc1cccc(C)c1NC(=O)c1cccnc1
? | · | Cc1ccc(NC(=O)c2sc3nc(C)cc(C)c3c2N)cc1
0.7% | 0.4% | COc1ccc(Cl)cc1C(=O)NCCS(=O)(=O)N1CCN(c2ccccc2F)CC1
1.0% | 0.0% | O=C(OCC(=O)N1CCN(C(=O)c2ccco2)CC1)C1=COCCO1
-1.1% | 1.0% | COCCCNC(=O)C1CCC(=O)N1Cc1ccccc1Cl (centres undefined)
-12.7% | · | Cc1cccc(NC(=O)[C@H](Cc2c[nH]c3ccccc23)NC(=O)[C@@H]2Cc3ccccc3CN2)c1
0.9% | 7.4% | CCOc1ccc(-c2nc(CSCC(=O)N3CCN(c4cccc(OC)c4)CC3)c(C)o2)cc1
1.3% | 5.5% | CCOCCCNC(=O)CCc1ccc(S(=O)(=O)Nc2ccc(C)cc2)cc1
11.9% | 1.9% | COCC(C)n1c(SCc2cc(C(=O)OC)c(C)o2)nc2ccccc2c1=O (centres undefined)
-6.8% | · | Cc1cccc(N(C(=O)CCC(=O)Nc2cc(C)on2)C(C(=O)NC2CCCC2)c2cccnc2)c1 (centres undefined)
9.8% | 4.9% | Cc1cc(NC(=O)COC(=O)c2cccc(O)c2)no1
-5.0% | 10.5% | CC1CCN(C(=O)CN(c2ccc3c(c2)OCCO3)S(=O)(=O)c2ccccc2)CC1
· | -3.9% | O=C(CCN1C(=O)c2ccccc2C1=O)Nc1cccc(F)c1
-1.1% | -2.5% | O=C(O)c1ccc(N2C(=O)c3ccc(C(=O)c4cccc([N+](=O)[O-])c4)cc3C2=O)cc1
· | 4.5%[56.1 µM] | CC(=O)Nc1ccc(Nc2cc(C)nc(Nc3ccc(NC(C)=O)cc3)n2)cc1
· | -0.5% | O=C(Cn1cc(C(F)(F)F)ccc1=O)N1CCc2ccccc21
-3.6% | · | CC(C)CC(C(=O)O)N1C(=O)C2C3c4ccccc4C(c4ccccc43)[C@@H]2C1=O (some centres undefined)
· | -0.6% | COc1ccc(S(=O)(=O)N2CCCCC2)cc1NC(=O)CSc1nnc(C2CC2)n1C
-0.3% | 2.9% | COc1cccc(S(=O)(=O)Nc2cccc(C(=O)N3CCCC3)c2)c1
-4.7% | 1.2% | Cc1cc(N/N=C/c2ccccc2F)c2ccccc2n1
-0.5% | -2.6% | O=C1C2CC=CCC2C(=O)N1Cc1nnc(-c2ccc(Cl)cc2)o1 (centres undefined)
7.9% | -5.6% | Cc1nc(SCC(=O)c2c[nH]c3ccccc23)n[nH]1
-16.9% | · | COc1ccc(-c2cc(=O)oc3cc(OCC(=O)NCC4CCC(C(=O)O)CC4)ccc23)cc1 (centres undefined)
-0.4% | 7.0% | O=C(COC(=O)CNC(=O)C1CCCCC1)Nc1ccc2ccccc2c1
-0.1% | 0.0% | C/C(=C\c1ccccc1)C(=O)Nc1ccc(S(=O)(=O)Nc2ncccn2)cc1
8.3% | 4.8% | Cn1c(SCc2ccc(Br)cc2)nc2c(c1=O)SCC2
-0.9% | · | O=C(c1cnn2c(C(F)(F)F)cc(-c3cccs3)nc12)N1CCCC1
29.4% | · | Cc1oc2cc3oc(=O)c(CC(=O)NCC(=O)N[C@@H](C(=O)O)c4ccccc4)c(C)c3cc2c1C
-8.1% | -5.6% | Cc1cccc(OCCCC(=O)NNC(=O)c2ccncc2)c1
-8.7% | 8.2% | COc1ccccc1OCC(O)Cn1c(=N)n(Cc2ccccc2)c2ccccc21 (centres undefined)
-9.6% | 1.1% | Cc1ccc(C(C(=O)NC2CCCC2)N(C(=O)CNC(=O)c2cccs2)c2cccnc2)o1 (centres undefined)
-1.7% | -9.8% | Cc1cc(F)ccc1NC(=O)C1CCN(C(=O)Nc2ccccc2)CC1
-1.3% | · | CCOC(=O)N1CCC(NC(=O)c2cccs2)CC1
-12.3% | · | COc1ccc(CCC2CCNCC2)cc1
-1.4% | · | CN1c2ccc([N+](=O)[O-])cc2C(C)(C)C12C=Cc1cc(C(=O)O)ccc1O2 (centres undefined)
-2.1% | -3.9% | CNC(=O)CN1C(=O)c2ccccc2S1(=O)=O
5.4% | 6.0% | CC(=O)Nc1c(NC(C)(C)C)c2ccccc2oc1=O
· | 0.0% | COc1ccc(-c2c(C)nn3c(N4CCC(C(=O)NCCC(C)C)CC4)cc(C)nc23)cc1OC
· | 0.1% | CCc1ccc(OCC(=O)NCCc2ccc3c(c2)OCCO3)cc1

Arranged by count of non-hydrogen atoms (high to low): part of the list above.
N370S GC | TDP1 inh | mol
-1.7% | -9.8% | Cc1cc(F)ccc1NC(=O)C1CCN(C(=O)Nc2ccccc2)CC1
· | 0.1% | CCc1ccc(OCC(=O)NCCc2ccc3c(c2)OCCO3)cc1
-1.3% | · | CCOC(=O)N1CCC(NC(=O)c2cccs2)CC1
-2.1% | -3.9% | CNC(=O)CN1C(=O)c2ccccc2S1(=O)=O
-12.3% | · | COc1ccc(CCC2CCNCC2)cc1

The results go on:
N370S GC | TDP1 inh | mol
2.5% | 3.3% | COc1ccc(CNC(=O)c2cnn3c(C(F)F)cc(C)nc23)cc1OC
9.7% | 1.0% | Cn1c(SCC(=O)N2CCOCC2)nc2cccnc21
11.1% | 0.0% | N#Cc1cc(S(=O)(=O)c2ccccc2)c(N)[nH]c1=O
6.6% | 0.0% | CC(C)N(Cc1cn(C)nc1-c1cccc(Cl)c1)CC1CCC(=O)N1 (centres undefined)
· | 0.8% | CCOc1ccc(S(=O)(=O)Nc2cccc(C(=O)NCCCN3CCCC3=O)c2)cc1
6.8% | -1.0% | COc1ccccc1NC(=O)c1cc(S(=O)(=O)N2CCOCC2)ccc1Cl
-4.4% | 2.0% | O=C(Cn1ncc2c([nH]c3ccccc32)c1=O)Nc1ccc(CN2CCCCC2)cc1
5.1% | 0.0% | Cn1cccc1Cc1nnc(SCC(=O)Nc2nccs2)n1CCc1ccccc1
4.1% | -2.5% | Nn1c(Nc2ccc(Cl)cc2)nncc1=O
-4.2% | 1.1% | CCOC(=O)Cc1csc(NC(=O)CSC2=NCCS2)n1
-8.7% | 9.1% | O=S(=O)(/N=C(/Nc1cc(N2CCOCC2)ncn1)c1ccc(F)cc1)c1ccccc1
-19.4% | 4.1% | O=C(NC1CCCC1)c1ccc(Cl)c(S(=O)(=O)N2CCOCC2)c1
-1.1% | 0.0% | CC(C)(C)NC(=O)C(c1cccs1)N(C(=O)c1csnn1)c1ccccc1F (centres undefined)
2.4% | -4.3% | Cc1csc(NC(=O)CSc2ccc3nnc(-c4ccncc4)n3n2)n1
-16.3% | · | NC(=NC(=O)c1ccc(OCC(F)(F)F)nc1)c1ccc(Cl)cc1
-3.8% | -1.0% | Cc1ccc(S(=O)(=O)N2CCN(C(=O)CCC(=O)OCC(=O)Nc3cccc(C#N)c3)CC2)cc1
-2.9% | 2.6% | O=[N+]([O-])c1cnn2cc(Br)cnc12
11.2% | 3.5% | Cc1c(C(=O)OCC(=O)NCc2ccc3c(c2)OCO3)cccc1[N+](=O)[O-]
-5.8% | · | C1CCCCCC(=NNc2nn[nH]n2)CCCCC1
-6.4% | 2.2% | O=C(O)CCC(C(=O)O)n1c(O)c(C2=c3ccccc3=NC2=O)sc1=S (centres undefined)
9.1% | 1.1% | Fc1ccc(CSc2ccc(-c3ccc4c(c3)OCO4)nn2)cc1
-7.7% | -11.9% | Cc1nn(CC(C)C)c2sc(C(=O)NC3CC(C)(C)NC(C)(C)C3)cc12
7.8% | 3.6% | CN1CCN(c2ccc(NC(=O)c3ccc4c(c3)OCCO4)cc2)CC1
-3.1% | 7.2% | CCOC(=O)c1nnn(-c2nonc2N)c1-c1ccc(OC)cc1
-6.4% | 2.9% | COc1cc(C2C(C(=O)OC(C)C)=C(C)Nc3ncnn32)cc(OC)c1OC (centres undefined)
0.5% | 0.0% | CCOc1ccc(N=C(/C(C(=O)C(=O)N2CCOCC2)=C(/O)c2ccccc2)c2ccccc2)cc1
2.4% | 3.3% | Cc1ccccc1Cn1nnc(-c2cccc(C(=O)O)c2)n1
4.2% | 4.9% | CCCNC(=O)c1ccc(SCC(=O)N(CC)CC)c([N+](=O)[O-])c1
2.6% | -13.5% | COCCn1c(C)cc(C(=O)COc2ccc(C)nc2[N+](=O)[O-])c1C
7.5% | 6.1% | Cc1ncsc1C(=O)NCc1ccc(N2CCCC2=O)cc1
-5.2% | 1.4% | COc1ccc(C(=O)C2CCCN(C(=O)c3cccc(Cl)c3F)C2)cc1OC (centres undefined)
· | 1.2% | CN(C(=O)COC(=O)/C=C/c1ccc2ccccc2n1)c1c(N)n(Cc2ccccc2)c(=O)[nH]c1=O
· | 0.8% | Nc1nc(COC(=O)C2CC(=O)N(CCc3ccccc3)C2)nc(Nc2ccccc2)n1 (centres undefined)
2.8% | · | Cc1onc(-c2ccccc2)c1C(=O)OCC(=O)N(CC(C)C)c1c(N)n(Cc2ccccc2)c(=O)[nH]c1=O
-9.1% | 1.5% | CCN1CCN(C(=O)c2ccc(N3CC4CC(C3)c3cccc(=O)n3C4)c(NC(=O)c3cc(OC)cc(OC)c3)c2)CC1 (centres undefined)
-0.7% | -3.7% | Cc1c(C(=O)Nc2ccc(F)cc2)nnn1-c1cccc(C(F)(F)F)c1
-1.3% | 1.0% | CN(C)C(=O)Cn1c(=O)n(C)c2ccccc21
3.9% | 0.0% | COCCNC(=O)/C(=C/c1ccccc1Cl)c1ccccc1
-1.2% | · | CCN1C(=O)[C@H]2[C@@H](c3ccc(C)cc3)N3C(=O)N(c4ccc(C(F)(F)F)cc4)C(=O)[C@@]3(CC)[C@H]2C1=O
-13.0% | -2.8% | COc1ccccc1-c1cc(C(=O)Nc2cc(C)on2)no1

By substructure, the compounds so far containing bromine
N370S GC | TDP1 inh | mol
8.3% | 4.8% | Cn1c(SCc2ccc(Br)cc2)nc2c(c1=O)SCC2
-2.9% | 2.6% | O=[N+]([O-])c1cnn2cc(Br)cnc12

Additional records:
N370S GC | TDP1 inh | mol
-3.9% | 9.2% | O=C(Nc1nnc(-c2ccc3c(c2)CCCC3)o1)c1ccccc1Cl
-9.7% | · | Cc1ccc(S(=O)(=O)N(Cc2cccc([N+](=O)[O-])c2)C(=O)N2CCN(C)CC2)cc1
6.2% | 0.0% | COC(=O)N(NC(=O)C(O)(c1ccccc1)c1ccccc1)c1ccc(C)cc1
16.0% | -4.9% | CCN(C(=O)CN1CCN(c2ccccc2O)CC1)c1c(N)n(Cc2ccccc2)c(=O)[nH]c1=O
-9.0% | 4.6% | COc1ccc(C(=O)NC2CC3CCCC(C2)N3Cc2ccccc2)cc1 (centres undefined)
8.5%[2.35 µM] | 2.0% | CCN(CC)S(=O)(=O)c1cccc(-c2nnc(SCCCC(=O)c3ccc(F)cc3)o2)c1
3.1% | 5.6% | O=C(C1CCCN(S(=O)(=O)c2ccc(Cl)cc2)C1)N(Cc1cccs1)C1CC1 (centres undefined)
3.5% | 0.0% | Cc1nnc(NC(=O)CSc2ccc(-c3cccnc3)nn2)s1
-15.8% | · | Cc1cccc(C2C3=C(CCCC3=O)N=C3c4ccccc4C(=O)C32)c1 (centres undefined)
-13.3% | 6.2%[56.1 µM] | COc1ccccc1-n1c(CNc2ccc(F)cc2)nnc1SCC(=O)Nc1cc(C)on1
1.1% | · | Cc1cccc(NC(=O)CSC2=NN3CCCC(=O)N=C3S2)c1C
-1.2% | 3.5% | CCc1ccc(NC(=O)CCc2nnc3ccc(N4CCCC4)nn23)cc1

Gathered by group, those above with a tert-butyl group (2)
N370S GC | TDP1 inh | mol
5.4% | 6.0% | CC(=O)Nc1c(NC(C)(C)C)c2ccccc2oc1=O
-1.1% | 0.0% | CC(C)(C)NC(=O)C(c1cccs1)N(C(=O)c1csnn1)c1ccccc1F (centres undefined)
